RVFV N-RNA FP: inhibitors of Rift Valley Fever Virus nucleocapsid-RNA interaction | AID 651828 | % bound, % (no concentration beside the values) | 0.1% of 20,000 active | RVFV N-RNA binding, fluorescence polarization; stronger effect = lower value;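 active = between 0 and 58% in either replicate with normal brightness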;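 note: 100 nL library stock added to about 12 µL; 100% = protein and probe without compound and 0% = probe alone; numbers are from one replicate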
Target sequence (P21700 whole entry, looked up): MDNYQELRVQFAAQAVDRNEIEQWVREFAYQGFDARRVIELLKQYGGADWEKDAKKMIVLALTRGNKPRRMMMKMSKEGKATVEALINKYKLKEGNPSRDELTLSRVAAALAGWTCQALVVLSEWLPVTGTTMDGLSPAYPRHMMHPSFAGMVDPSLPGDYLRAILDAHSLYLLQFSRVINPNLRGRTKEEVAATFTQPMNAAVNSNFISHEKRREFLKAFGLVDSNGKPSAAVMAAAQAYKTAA
* = called active by the depositor; & = joins results of further samples. This is a subset; the hit share may differ from the screen's.

SMILES | RVFV N-RNA FP
COc1ccc(C(=S)N2CCCCC2)cc1 | 94
COC(=O)c1ccc(NC(=O)Cn2cc(OC)c(=O)cc2CN2CCCCC2)cc1 | 100
Cc1cc(C(F)(F)F)c(C#N)c(N)c1C#N | 91
Nc1nc(=S)n2c(n1)oc1ccccc12 | 101
CCOC(=O)N1CCN(S(=O)(=O)c2cccc3ccc(C)nc23)CC1 | 92
N#Cc1ccccc1COC(=O)c1ccccn1 | 106
CCCCc1cc(=O)oc2cc(C)cc(O)c12 | 100
CSc1nc(-c2ccccc2)nc(Sc2ccccn2)c1C#N | 92
CN(C)c1ccc(NC(=S)c2ccccn2)cc1 | 91
CC(C)(C)OC(=O)N1CCCN(S(=O)(=O)c2ccc3c(c2)CCO3)CC1 | 93
O=C(NCCSc1ccccc1)c1cc(-n2cnnc2)ccc1Cl | 104
O=C(Nc1cc2c3c(c1)CC(=O)N3CCC2)c1ccccc1 | 94
COc1c2occc2cc2ccc(=O)oc12 | 97
COc1cc(CN2CCC(Cc3ccccc3)CC2)cc(OC)c1O | 94
Cc1cc(NC(=O)NCC(O)c2ccccc2)c(C(F)(F)F)o1 (configuration not stated) | 96
NC(=O)CSCC(=O)Nc1ccccc1F | 95
C#C[C@]1(O)CC[C@H]2[C@@H]3CCC4=Cc5oncc5C[C@]4(C)[C@H]3CC[C@@]21C | 107&96
N#CCN(CC#N)C(=O)CSc1ccccc1 | 79
O=C1C(Cc2ccc(O)cc2)NC(=S)N1Cc1ccccc1 (configuration not stated) | 102
Cc1cc(NC(=O)C(NC(=O)c2ccc(F)cc2)C23CC4CC(CC(C4)C2)C3)no1 (configuration not stated) | 100

Remaining list, next part
SMILES | RVFV N-RNA FP
O=C(Oc1ccc2oc(-c3ccco3)cc(=O)c2c1)c1ccccc1 | 108
O=C1CSC(c2ccccc2O)N1Cc1ccccc1 (configuration not stated) | 95
COc1cc(C2C(C#N)=C(SCC(=O)c3cc4ccccc4o3)NC3=C2C(=O)CC(C)(C)C3)cc(OC)c1OC (configuration not stated) | 98
CC1CCCC(C)N1S(=O)(=O)c1ccc(NC(=O)c2ccccc2C(=O)N2CCOCC2)cc1 (configuration not stated) | 95
Cc1oc(-c2ccccc2F)cc1CO | 92
CCCSc1nc2sc3c(c2c(=O)[nH]1)C(C)CCC3 (configuration not stated) | 96
CCn1nc(C)cc1C(=O)n1nc(C)c(Sc2ccc(C(F)(F)F)cn2)c1C | 94
Cc1ccc(NC(=O)C(C)C(=O)Nc2ccc(C)cc2)cc1 | 101
CN1CCC(N(C)Cc2ccccc2)CC1 | 84
COc1cc(C)c(Cl)cc1S(=O)(=O)N(C)C | 101
CC(C)NS(=O)(=O)c1ccc(NC(=O)C2CCCCC2)cc1 | 98
O=C(c1ccc2c(c1)OCO2)N1CCN(C2c3ccccc3-c3ccccc32)CC1 | 94
CC(C)(C)NCC(O)c1cc(Cl)c(N)c(Cl)c1 (configuration not stated) | 94
O/N=C/c1ccc(Br)cc1 | 90
O=C(N1CCC(c2ccccc2)=N1)C(F)(F)F | 88
CCCCc1c(O)nc2cc(C)ccn2c1=O | 101
N#C/C(C(=O)c1ccccc1)=C1/CCCCCN1 | 89
CC(C)n1cnc2c(NCCCCCCNC(=O)OC(C)(C)C)nc(NCCO)nc21 | 110
Cc1ccc(-c2cc(-c3ccccc3)no2)c(O)c1 | 88
CCc1ccc(Nc2nc(N)nc(C(F)(F)F)n2)cc1 | 103

The listing continues.
SMILES | RVFV N-RNA FP
COC(=S)Nc1cccc(Cl)c1 | 95
Cc1cc2cc(CNC(=O)c3cc4ccccc4o3)ccc2n1C | 95
NC(=O)c1cc[n+](CC2=C(C(=O)O)N3C(=O)[C@@H](NC(=O)[C@@H](c4ccccc4)S(=O)(=O)[O-])[C@H]3SC2)cc1 | 95
Cc1nn(-c2ccccc2)c(CC(C)(C)C(=O)O)c1C(=O)O | 95
Cc1cc(C)n(-c2cc(=O)[nH]c(=O)[nH]2)n1 | 98
Cc1ccc2c(c1)C1c3sc(=O)[nH]c3SCC1(CC(=O)O)C(=O)O2 (configuration not stated) | 112
CCN1CCN(Cc2ccc(C)cc2)CC1 | 100
COc1ccc(N2CCN(Cc3cc(=O)c(OCc4ccccc4)co3)CC2)cc1 | 95
Cc1ncc([N+](=O)[O-])n1CC(C)O (configuration not stated) | 99&102
CCn1c(=NC(=O)c2cccc(OC)c2)sc2cccc(OC)c21 | 92
Cc1occc1C(=O)N1CCCCCC1 | 91
CC(C)CC(=O)Nc1ccncc1 | 86
OC1(c2ccc(Cl)cc2Cl)CSC(=S)N1Cc1ccco1 (configuration not stated) | 93
Cn1ncc(C#N)c1/N=C/N(Cc1ccccc1)Cc1ccccc1 | 94
N#Cc1cnc(Sc2nnc(-c3ccncc3)o2)nc1N | 94
Cc1ccccc1C(=O)NC(C)c1ccc2c(c1)OCCO2 (configuration not stated) | 91
Cn1c(=NC(=O)CSCC(=O)Nc2nccs2)sc2ccccc21 | 102
Cc1ccccc1OCc1nc2ccccc2c(=O)n1N | 89
ONC=NCc1ccccc1OC(F)(F)F | 100
Cc1nccn1-c1ccc(C(F)(F)F)cn1 | 99

Later entries.
SMILES | RVFV N-RNA FP
CN(C)CCCN1c2ccccc2CCc2ccccc21 | 95&98&98
Nc1cc(-c2ccc(I)cc2)[nH]n1 | 97
Cc1c(Cl)cccc1NC(=O)CC(NCCN1CCOCC1)C(=O)O (configuration not stated) | 100
O=C(/C=C/c1ccccc1)N(c1ccccn1)C1CCCCC1 | 104
N#Cc1cnc(Sc2nnc(-c3ccco3)n2-c2ccccc2)nc1N | 94
COCCNC(=S)c1ccc(N(C)C)cc1 | 95
CC(C)S(=O)(=O)c1csc(C(=O)N/N=C/C(C)(C)C)c1-n1cccc1 | 90
CCN(CC)CCOCCOC(=O)C1(c2ccccc2)CCCC1 | 91
CC(=O)N/C(=C\c1ccccc1)C(=O)O | 106
CCCNC(=O)C12CC3CC(CC(C3)C1)C2 | 96
CCOc1cc(C(=O)NC(=S)Nc2cccc(-c3ccc(CO)o3)c2)cc(OCC)c1OCC | 97
Cn1c(=O)c2nc(SCC(N)=O)n(C)c2n(C)c1=O | 96
COC(=O)Nc1ccc2c(c1)CCCN2S(=O)(=O)c1ccc(C)cc1 | 88
NNC(=O)c1cc2ncc(C(F)(F)F)cc2s1 | 93
O=c1c2ccccc2[nH]c(=S)n1C1CC1 | 101
CCSC1=NCCN1C(=O)c1ccc2c(c1)OCO2 | 96
Nc1ccc(CC2C(=O)Nc3ccccc32)cc1 (configuration not stated) | 95
CC1CN(C(=O)CC(C)c2ccccc2)CC(C)O1 (configuration not stated) | 103
COc1cc(/C=C2\SC(=O)N=C2N)ccc1O | 112
CC(C)(C)NC(=O)COc1ccc(CO)cc1 | 94

In another format: results already given.
CC(C)(C)OC(=O)N1CCCN(S(=O)(=O)c2ccc3c(c2)CCO3)CC1
  RVFV N-RNA FP: 93
O=C(NCCSc1ccccc1)c1cc(-n2cnnc2)ccc1Cl
  RVFV N-RNA FP: 104
O=C(Nc1cc2c3c(c1)CC(=O)N3CCC2)c1ccccc1
  RVFV N-RNA FP: 94
COc1c2occc2cc2ccc(=O)oc12
  RVFV N-RNA FP: 97

(more compounds)
SMILES | RVFV N-RNA FP
Cc1ccc2nc(SCC(=O)NC(C)C)nc(=O)n2c1 | 97
CSC1=NCCN1C(=O)C1CCCCC1 | 102
Cc1cc(C)c2c(n1)OC(N1CCOCC1)(C(F)(F)F)CC2=O (configuration not stated) | 92
CCN(CC)C(=Nc1ccccc1)Nc1ccccc1 | 98
N#C/C(=C/c1ccc(Sc2nc3ccccc3[nH]2)o1)C(=O)N1CCOCC1 | 91
CC(NS(=O)(=O)c1ccc(Br)cc1)C(c1cccs1)N1CCOCC1 (configuration not stated) | 97
FCOC(C(F)(F)F)C(F)(F)F | 106
COc1ccc(N(C(=O)C(C)C)S(=O)(=O)c2cccs2)cc1 | 97
N#Cc1c2c(c(NC3CCCC3)n3c1nc1ccccc13)CCC2 | 100
CSc1nc(N)c2c3c(sc2n1)CCC3 | 95
S=c1[nH]nc(CN2CCCCCC2)n1-c1ccccc1 | 87
Cc1nc2ccc(CN(C)c3ccc(C(=O)N[C@@H](CCC(=O)O)C(=O)O)s3)cc2c(=O)[nH]1 | 92
CC(C)N(Cc1ccccc1)C(=O)N(C)C | 101
CC(C)OC(=O)C(C)Nc1ccc(F)c(Cl)c1 (configuration not stated) | 92
CN(C)c1ccc(/C=N/n2c(=O)[nH][nH]c2=O)cc1 | 89
CCC(=O)Nc1c2c(nn1-c1ccccc1)CS(=O)C2 (configuration not stated) | 107
CCCCn1c(O)c(C#N)c(C)c(N=Nc2ccc(OC)cc2)c1=O | 107
NC1(C(=O)O)CC1 | 92
O=C(/C=C/c1ccco1)NC(=S)Nc1ccc(Cl)cc1 | 93
CS(=N)(=O)CC[C@H](N)C(=O)O (some centres not stated) | 97

The listing continues:
SMILES | RVFV N-RNA FP
NC(=O)c1c(N)n(-c2cccc(F)c2)c2nc3ccccc3nc12 | 101
CN1CC(O)C(O)C(O)C1CO (configuration not stated) | 94
C/C(=C\c1ccccc1)C(=O)NC1CCCC1 | 89
O=c1c(-c2cccc(C(F)(F)F)c2)[n+]([O-])c2ccccc2n1O | 76
C=CCNC(=S)N(C)C1CCS(=O)(=O)C1 (configuration not stated) | 87
C#CC(CC)(CC)Nc1ccsc1C(=O)O | 94
Cc1ccc(SCCC(=O)Nc2ccc(CC#N)cc2)cc1 | 87
CCOC(=O)c1cc(C)n(-n2cnnc2)c1C | 87
O=C1C2N=NN(Cc3ccccc3)C2C(=O)N1c1ccccc1 (configuration not stated) | 96
NC(=O)CSc1nnc2n(-c3ccccc3)c(=O)c3c(n12)-c1ccccc1CC31CCCC1 | 79
COc1ccc(-n2nc3c(c2NC(=O)c2ccccc2)CSC3)cc1 | 95
O=c1[nH]c(=S)[nH]c(-c2ccccc2)c1Cc1c(O)ccc2ccccc12 | 100
CC(C)(C)c1nnc2n(c1=O)N=C(c1ccc(F)cc1)CS2 | 113
Cc1ccccc1C1NS(=O)(=O)N=C1N (configuration not stated) | 109
NC(=O)CSc1oc(-c2ccccc2)nc1S(=O)(=O)c1ccccc1 | 96
CCCCNC(=O)Cc1ccc(C)cc1 | 96
O=C1Nc2c(C(F)(F)F)cccc2C12SCCS2 | 99
O=c1[nH]c(CSC2=NCCS2)nc2ccccc12 | 91
OC(CNC(=S)Nc1ccccc1)c1ccccc1 (configuration not stated) | 98
CS(=O)(=O)N1CCN(c2ccc(NC(=O)Nc3cccc(Cl)c3)cc2)CC1 | 93

(more compounds)
SMILES | RVFV N-RNA FP
CCOc1ncccc1C(=O)Nc1ccc(-c2cn3c(n2)SCC3)cc1 | 92
NCCCNCCCCNCCCN | 93
C=CCN1C(=O)S/C(=C\c2ccc(CC)s2)C1=O | 94
COc1ccc2cc(CCNS(=O)(=O)c3ccccc3)c(=O)[nH]c2c1 | 104
CC(C)(C)S(=O)(=O)c1ccsc1 | 110
N#Cc1ccsc1NC(=O)c1ccc(S(=O)(=O)N2CCOCC2)cc1 | 92
CC[C@H](C)C(=O)O[C@H]1CCC=C2C=C[C@H](C)[C@H](CC[C@@H]3C[C@@H](O)CC(=O)O3)[C@H]21 | 95&93&97
CCCCN1C(=O)C2Cc3c([nH]c4ccccc34)CN2C1=S (configuration not stated) | 97
Cc1cccc(NC(=O)C2C(C)(C)C2(C)C)c1C | 100
O=C1CC(SCCO)C(=O)N1c1ccccc1 (configuration not stated) | 96
COc1cccc(C(=O)Nc2sc3c(c2C(N)=O)CCN(C(C)=O)C3)c1OC | 111
Cc1ccc2c(c1)CCCN2C(=O)c1csc(C)c1 | 90
NCC(CC(=O)O)c1ccc(Cl)cc1 (configuration not stated) | 99
O=C(Nc1ccc(CN2CCCCC2)cc1)c1c(F)c(F)c(F)c(F)c1F | 104
C[N+](C)(C)CC#CCOC(=O)Nc1cccc(Cl)c1 | 91
CC(Cc1ccccc1)NC=O (configuration not stated) | 90
C(=N/n1cnc2ccccc21)/c1ccccc1 | 93
COC(=O)Cn1cc(/C=C(/C#N)C(=O)NCc2ccccc2)c2ccccc21 | 94
O=C(Nc1ccccc1N1CCCC1)c1ccccc1 | 107
CC(=O)OC(C)C[N+](C)(C)C (configuration not stated) | 95

(further entries)
SMILES | RVFV N-RNA FP
Cc1cccc(N2CCN(Cc3ccco3)CC2)c1C | 89
COC(=O)C1=C(C)N(C)C(=O)C12c1ccccc1-c1oc(N)nc12 (configuration not stated) | 97
O=C(O)/C=N/NC(=O)c1ccccc1 | 99
O=C1NC(=Nc2ccccc2Br)SC1(CO)CO | 105
COC(=O)N1CCN(C(=O)Cc2ccc(Cl)c(Cl)c2)C(CN2CCCC2)C1 (configuration not stated) | 98&94
O=C(Nc1cccc(O)c1)c1cccc(-n2cnnc2)c1 | 95
COC(=O)C(C)(C)NC(=O)c1cccs1 | 92
CC(C)Nc1ncccn1 | 104
Cn1c(=O)c2c(SCC(=O)Nc3ccccc3C(F)(F)F)ccnc2n(C)c1=O | 93
N[C@@H](CCC(=O)N[C@H](CSN=O)C(=O)NCC(=O)O)C(=O)O | 96
Cc1sc2nc(N)c(C#N)c(C)c2c1C | 101
Cc1cc2n(n1)C(O)(C(F)(F)F)CC(O)(C(F)(F)F)N2 (configuration not stated) | 96
CCN(C(=O)Nc1ccccc1)C1CCCCC1 | 91
Cc1nnc(SCC(=O)Nc2cccc(C(F)(F)F)c2)o1 | 110
O=C(c1ccc(Cl)c(S(=O)(=O)N2CCOCC2)c1)N1CCN(c2ccccc2F)CC1 | 95
CN(C(=O)Oc1ccccc1)c1ccc(C(O)(C(F)(F)F)C(F)(F)F)cc1 | 93
CCCc1nnc(NC(=O)c2oc3cc(C)c(C)cc3c2C)s1 | 96
Cc1cc(=O)c(C(=O)N[C@@H](C(=O)N[C@@H]2C(=O)N3C(C(=O)O)=C(CSc4nnnn4C)CSC23)c2ccc(O)cc2)c[nH]1 (some centres not stated) | 98
